# GIV-Gai inh: inhibitors of GIV peptide binding to Galpha-i3, primary screen, biochemical, fluorescence polarization, FITC-GIV GBA peptide, rat Galphai3; hit rate 0.42% among 210,000; percent of control (FP), % (test concentration not listed); Guanine nucleotide-binding protein G(i) subunit alpha-3 (Rattus norvegicus), P08753; 90 min; active compounds read low; scaled: aluminum fluoride 0%, vehicle 100%;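 active = replicate mean at 85% of control or lower, very high polarization wells dropped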;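 note: lower values mean more displacement of the GIV peptide from Galpha-i3; wells of about 15 µL received 100 nL stock; the first replicate is given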
# Target sequence (P08753 whole entry, looked up): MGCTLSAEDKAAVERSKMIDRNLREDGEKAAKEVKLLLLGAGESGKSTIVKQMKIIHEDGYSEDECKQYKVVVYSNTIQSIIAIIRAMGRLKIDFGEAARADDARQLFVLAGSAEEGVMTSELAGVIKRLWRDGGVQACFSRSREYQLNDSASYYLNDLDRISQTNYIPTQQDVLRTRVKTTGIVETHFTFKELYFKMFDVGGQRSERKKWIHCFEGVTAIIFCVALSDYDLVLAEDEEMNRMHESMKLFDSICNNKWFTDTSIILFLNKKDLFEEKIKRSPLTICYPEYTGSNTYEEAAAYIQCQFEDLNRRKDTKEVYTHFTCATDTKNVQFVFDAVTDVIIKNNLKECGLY
# Sa growth 42C: S. aureus growth inhibition at 42 and 30 °C, primary screen, LtaS inhibitor project, RN4220, two temperatures | OD600, 20 h, 42 °C; active compounds read low | relative growth, % (test concentration not listed) | hit rate 0.53% among 170,000 | AID 720641, 2013;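 active = growth at 42 °C up to 50% and 20 or more points under that at 30 °C, or under 10% at both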;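 note: 300 nL library stock went into each well; scaled to the means of positive and negative controls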
# HCMV UL50-53 inh: inhibitors of HCMV UL50-UL53 interaction, biochemical, HTRF. HCMV UL50-UL53 nuclear egress complex (human cytomegalovirus). normalized percent inhibition. inhibition, % (test concentration not listed). hit rate 0.15% among 190,000. AID 1918969, 2023;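 active = both replicates at 50% or more, plus weaker picks with an unusually low signal ratio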;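 note: stock transfer was 100 nL into about 20 µL; 0% = negative control wells and 100% = wells with untagged competitor protein; inactives centre near -12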
# Sa growth 42C second temp: also measured in Sa growth 42C; calls as there; relative growth, %; measured here: growth at 30 °C;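 optical density after 20 h as mean of two plates; 100% = untreated growth and lower means inhibition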
# * marks the source's active call; other numbers are inactive results; / = not tested or not shown; & = joins results of further samples. This is a random part of the collection (roughly 0.79% active in at least one column).
SMILES,GIV-Gai inh,Sa growth 42C,Sa growth 42C second temp,HCMV UL50-53 inh
COc1ccc(OCC(=O)NC(C)(C)C)cc1,/,121,89,-3
CS(=O)(=O)N(Cc1nc(-c2cccs2)no1)c1ccc(F)cc1,103,95,88,-8
O=C(C1CCCN1)N1CCOCCOCCOCC1 (stereo unspecified),104,124,94,1
Nc1nc2ncc(CNc3ccc(C(=O)N[C@@H](CCC(=O)O)C(=O)O)cc3)nc2c(=O)[nH]1,/,93,94,-78&-61&-51
COc1ccc(-c2nnc3sc(C(C)N4C(=O)c5ccccc5C4=O)nn23)cc1 (stereo unspecified),98,95,73,-22
COc1ccc(CNC(=O)Cc2csc3nc(-c4ccc(F)cc4)cn23)cc1,103,116,82,/
O=C(O)CSCC(=O)N1CCCN(c2ccc(C(F)(F)F)cn2)CC1,102,112,97,19
Cc1ccc(O)c(C(=O)c2cnn(C(=O)c3cccc(S(=O)(=O)N4CCCC4)c3)c2)c1,/,98,95,-17
CCN(Cc1nc(-c2ccc(OC)cc2)oc1C)S(=O)(=O)c1ccc(Cl)cc1,102,112,93,/
Brc1ccc(CN2CCN(Cc3ccccc3)CC2)s1,98,114,78,-7
Cc1cc(Cl)ccc1OCC(=O)N(Cc1sccc1C)C1CCS(=O)(=O)C1 (stereo unspecified),100,110,88,-8
CCN(C(=O)CSc1nnc(-c2ccccc2)c(-c2ccccc2)n1)C1CCS(=O)(=O)C1 (stereo unspecified),/,101,94,-89
CCOC(=O)c1c(C)[nH]c(C)c1C(=O)COC(=O)CCC1CCCC1,/,105,95,-24
COC(=O)CSC1=C(C#N)C(c2ccc(OC)c(OCc3ccccc3)c2)CC(=O)N1 (stereo unspecified),106,/,/,-11
CCN(CC)CCn1c2ccccc2c2nc3ccccc3nc21,100,/,/,-53
CCOc1ccccc1C1CC(=O)Nc2c1c(=O)n(C)c(=O)n2C (stereo unspecified),100,103,87,/
Cc1ccc2[nH]cc(C(c3ccccc3)c3ccc(C)s3)c2c1 (stereo unspecified),120,90,66,-41
CC(C)N(C(=O)CSc1nnc(COc2ccc(Cl)cc2Cl)o1)c1ccccc1,104,/,/,-22
O=C(CSc1ccc(Cl)cc1)N1CCN(c2ncccc2C(F)(F)F)CC1,105,114,104,2
Cc1csc(=Nc2c(C)n(C)n(-c3ccccc3)c2=O)n1Cc1ccccc1,/,96,98,-12
CC(=O)OCC(=O)[C@@]1(O)CCC2C3CCC4=CC(=O)C=CC4(C)C3C(=O)CC21C (stereo partly specified),106,90,91,-26
COC(=O)c1cccc(NC(=NCc2ccncc2)NC(=O)c2cccc(N(C)C)c2)c1,104,/,/,-33
COc1ccc(C(=O)N2CCN(S(=O)(=O)c3cc(Cl)ccc3OC)CC2)cc1,107,95,95,/
O=C1CC(C(=O)NC2CCCCC2)C2(CCCCC2)O1 (stereo unspecified),/,87,87,-9
CCCc1ccc(NC(=S)OCC)cc1,98,83,44,22
COc1cccc(C(=O)Nc2nc(SCc3ccc(Cl)cc3)n[nH]2)c1,108,112,85,-52
CCOC(=O)C(Cc1c[nH]c2ccccc12)NC(=O)COc1cc(C)ccc1C(C)C (stereo unspecified),101,/,/,-8
CN(C)C1(CN)CCCCC1,104,112,89,-3
Cc1nc(N)nc2c1C(=O)CC(c1ccccc1)C2 (stereo unspecified),100,110,93,-2
Cn1c(=O)[nH]c2c(c1=O)C(c1ccc(F)cc1)C1=C(COC1=O)N2 (stereo unspecified),/,101,100,-7
O=C(NCc1ccc2c(c1)OCO2)c1ccc2c(=O)nc3c(-c4ccccc4)n[nH]n3c2c1,110,/,/,30
Cc1ccc(Cn2c(/N=C/c3ccc(Br)cc3)nc3ccccc32)cc1,101,108,95,/
O=C(Cc1ccc(F)cc1)NCCc1csc2nc(-c3ccccc3F)nn12,106,91,92,/
CCCCNC(=O)c1cc2n(n1)CCCN(Cc1ccc(C)cc1)C2=O,102,89,98,/
COC(=O)c1c(-c2ccc(Cl)cc2)noc1N1CCN(c2cccc(OC)c2)CC1,106,83,83,/
O=C(c1ccco1)N1CCN(c2ncnc3sc4c(c23)CCCC4)CC1,/,75,51,-4
Cc1ccc(OCCn2cc(C(=O)C3CCCCC3)c3ccccc32)cc1,101,86,86,-14
Cc1ccc(NS(=O)(=O)c2cn(C)c(C)n2)c(Br)c1,93,90,88,/
Cc1ccsc1C=Nc1cccc2c(=O)[nH][nH]c(=O)c12,107,108,96,-20
Cc1oc(-c2ccc(C(=O)NC(C)c3ccccc3)cc2)nc1CS(=O)(=O)c1ccccc1 (stereo unspecified),101,121,81,/

# Shown with tabs: part of the list above
Molecule	GIV-Gai inh	Sa growth 42C	Sa growth 42C second temp	HCMV UL50-53 inh
CCOC(=O)C(Cc1c[nH]c2ccccc12)NC(=O)COc1cc(C)ccc1C(C)C (stereo unspecified)	101	/	/	-8
CCCCNC(=O)c1cc2n(n1)CCCN(Cc1ccc(C)cc1)C2=O	102	89	98	/
Cc1ccc(OCCn2cc(C(=O)C3CCCCC3)c3ccccc32)cc1	101	86	86	-14
Cc1ccc(Cn2c(/N=C/c3ccc(Br)cc3)nc3ccccc32)cc1	101	108	95	/
COC(=O)c1cccc(NC(=NCc2ccncc2)NC(=O)c2cccc(N(C)C)c2)c1	104	/	/	-33
Cc1nc(N)nc2c1C(=O)CC(c1ccccc1)C2 (stereo unspecified)	100	110	93	-2
O=C(NCc1ccc2c(c1)OCO2)c1ccc2c(=O)nc3c(-c4ccccc4)n[nH]n3c2c1	110	/	/	30

# Going on with the list.
SMILES,GIV-Gai inh,Sa growth 42C,Sa growth 42C second temp,HCMV UL50-53 inh
Cc1cccc(NC(=O)C2CCCN2S(=O)(=O)c2ccc3c(c2)n(C)c(=O)c(=O)n3C)c1 (stereo unspecified),104,98,92,-6
CN1CCN(Cn2c(O)c(N=NC(=O)c3ccc(Br)cc3)c3cc(Br)ccc32)CC1,104,104,81,-32
COc1ccc(Cl)cc1S(=O)(=O)Nc1ccc(-c2ccc(N3CCOCC3)nn2)cc1,100,/,/,-39
CCOC(=O)c1[nH]c(C)c(CCC(=O)Nc2cccc(C(F)(F)F)c2)c1C,102,87,81,/
Cc1ccc(C(=O)OCC(=O)NN2C(=O)NC3(CCC(C)CC3)C2=O)cc1 (stereo unspecified),/,84,97,-18
COc1nc(C)ccc1-c1noc(-c2ccc(C(C)(C)C)cc2)n1,97,/,/,-7
Cc1ccc(NC(=O)C(=O)NCC(c2cccnc2)N2CCc3ccccc32)cc1Cl (stereo unspecified),114,95,97,2
Cc1csc2nc(O)c(C(=O)NCCN(C)C)c(=O)n12,104,79,80,1
O=C(NCc1ccccc1)C1CCCN(c2nc3ncccc3n3cccc23)C1 (stereo unspecified),117,/,/,-32
CN(C)S(=O)(=O)c1ccc(N2CCCC2)c(C(=O)OCc2cn3cc(Cl)ccc3n2)c1,/,117,88,-4
O=C(COc1ccccc1Cl)Nc1ccc(OCc2cc(=O)n3ccsc3n2)cc1,97,104,86,-35
O=C(NCCC1=CCCCC1)c1cc2c(s1)-c1ccccc1SC2,102,88,79,/
O=c1cc(-c2ccccc2)oc2ccc(-c3nn[nH]n3)cc12,103,89,85,23
CNC(=O)C1CCN(C(=O)N2CC(C)Oc3ccc(C)cc32)CC1 (stereo unspecified),98,136,94,-16
NS(=O)(=O)c1ccc(NC(=S)NC(=O)C2CCCCC2)cc1,106,107,96,-11
COc1cc(Br)c(/C=C(\C#N)c2nc3ccccc3[nH]2)cc1OC,112,99,98,-9
O=C(NCc1ccc2c(c1)OCO2)C1CCC(=O)N1Cc1ccccc1Cl (stereo unspecified),95,102,90,2
COc1cccc(OC)c1C(=O)N1CCNCC1,103,103,111,-5
O=C1C(Oc2ccc(Cl)cc2)C(c2ccc3c(c2)OCO3)N1CC1CCCO1 (stereo unspecified),99,109,80,-15
Cc1c(NC(=O)CCCc2nc(-c3ccncc3)no2)c(=O)n(-c2ccccc2)n1C,105,/,/,-3
Cc1cc(C(C)(C)C)cc(C)c1COC(=O)C1CCC(=O)N1 (stereo unspecified),/,104,101,18
COC(=O)C1=C(C)N=C2SC(C#N)=C(N)N2C1c1cccs1 (stereo unspecified),113,110,82,-64
CC1=CCC(C(=O)O)C(C(=O)Nc2nc3ccc(S(C)(=O)=O)cc3s2)C1 (stereo unspecified),/,98,101,11
CCOc1ccc(CCNC(=O)CN(c2ccc(C)cc2)S(=O)(=O)N(C)C)cc1OCC,103,112,83,-15
O=C1C=CC(=O)N1c1ccc(F)c(Cl)c1,/,97,96,6
COc1cccc(C(=O)N/C(=C\c2cccnc2)C(=O)N2CC3CC(C2)c2cccc(=O)n2C3)c1 (stereo unspecified),101,87,91,-36
CCOC(=O)CNC(=O)CSc1nnc(Cc2cccn2C)n1-c1ccc(C)cc1,95,/,/,-40
Cc1ccc(C)c(NC(=O)CSc2nc3ccccc3nc2N2CCOCC2)c1,107,108,87,-30
COCCNC(=O)c1cc(C(=O)c2cc(Cl)ccc2O)coc1=N,/,102,87,-18
COC(=O)c1cc(S(=O)(=O)N2CCCC2C(=O)NCc2ccccn2)cn1C (stereo unspecified),94,/,/,6
O=C(O)CCCN1C(=O)COc2ccc(Cl)cc21,99,98,83,12
CCC(C)(C)NC(=O)C1CCN(S(=O)(=O)c2c(C)[nH]c(C)c2C(=O)N2CCCCC2)CC1,103,/,/,-38
Cc1c2c(=O)n(-c3ccccc3)[nH]c2cc(=O)n1Cc1cccnc1,101,/,/,-47
O=C(Cc1c(F)cccc1Cl)NCCCn1ccnc1,109,89,78,8
C[N+](C)(C)CC(=O)N1CCN(c2ccc3ccccc3n2)CC1,105,100,96,-8
N#Cc1ccc(COC(=O)Cn2nc(-c3ccccc3)oc2=O)cc1,/,80,81,-35
CCOC(=O)C1CCN(CCC(=O)Nc2ccccc2OC)CC1,100,101,99,3
C=CCNCCOc1ccc(Cl)c(Cl)c1,99,98,98,7
CCOc1ccc(C2=NC(c3ccc(OC)cc3)NC(c3ccccc3O)C2)cc1 (stereo unspecified),103,68,68,/
CCC1CN(C(=O)N2CCC(C(=O)NCCc3ccccc3C)CC2)c2ccccc2O1 (stereo unspecified),107,87,100,4

# Some of the entries so far, with tabs:
compound	GIV-Gai inh	Sa growth 42C	Sa growth 42C second temp	HCMV UL50-53 inh
CCC(C)(C)NC(=O)C1CCN(S(=O)(=O)c2c(C)[nH]c(C)c2C(=O)N2CCCCC2)CC1	103	/	/	-38
Cc1c2c(=O)n(-c3ccccc3)[nH]c2cc(=O)n1Cc1cccnc1	101	/	/	-47

# Next section:
SMILES,GIV-Gai inh,Sa growth 42C,Sa growth 42C second temp,HCMV UL50-53 inh
Nc1snnc1-c1ccc(C(F)(F)F)cc1,103,96,56,-10
O=C(CSc1nnc2sc3ccccc3n12)Nc1ccc(Cl)cc1,106,/,/,-2
CC1CCc2nc(NN)nc(C(F)(F)F)c2C1 (stereo unspecified),99,95,80,/
CCCCn1c(=O)c2ccccc2n2c(SCC(=O)N3CCN(c4ccccc4)CC3)nnc12,/,94,95,-8
CCOc1ccc(-c2nc(C#N)c(N(C)C)o2)cc1,103,114,75,/
Cc1cccc(NC(=O)C(CC(C)C)NC(=O)C2CCC(C)CC2)n1 (stereo unspecified),104,80,91,/
Cc1ccc(C)c(Cn2cc(CCC(=O)NC3CCCCC3)c3ccccc32)c1,105,102,88,/
CCc1ccc(-c2csc(NC(=O)c3cccs3)n2)cc1,/,100,95,7
O=C(Cn1cnc2sccc2c1=O)NC(=O)NCc1ccco1,/,111,97,-16
COC(=O)c1ccc(C2C3=C(CC(c4ccc(OC)c(OC)c4)CC3=O)Nc3onc(C)c32)cc1 (stereo unspecified),108,/,/,-18
O=C(O)/C=C/C(=O)NCc1ccc(-c2cccs2)s1,102,126,104,-24
Cc1occc1-c1nnc(SCC(=O)N2CCCCC2C)o1 (stereo unspecified),100,/,/,-26
Cc1ccc(S(=O)(=O)Nc2ccc3c(c2)c(C(=O)OC(C)C)c(C)n3S(=O)(=O)c2ccc(C)cc2)cc1,112,96,96,-3
O=C1CCCC2=C1C(c1ccc(O)cc1)c1c(ccc3ccccc13)N2 (stereo unspecified),107,94,76,-4
Cc1ccc(I)c(C(=O)O)c1,99,116,91,-1
CCCCc1nc(-c2ccc(Br)cc2)no1,99,114,83,-15
CCC(C)NC(=O)C(Cc1ccccc1)n1cccc1 (stereo unspecified),99,96,84,2
C=CCn1cnc2scc(-c3ccc(C)cc3)c2c1=O,/,98,82,-24
COc1ccccc1Nc1nn2c(=O)c3ccc(C(=O)NCc4ccc(F)cc4)cc3nc2s1,102,112,85,/
CCCCCn1c(=O)[nH]c2cc(C(=O)Nc3cc(OC)cc(OC)c3)ccc2c1=O,104,100,89,2
CC(Oc1ccccc1)C(=O)Nc1ccc(Cl)cc1 (stereo unspecified),/,101,94,9

# Some of these compounds in order of the GIV-Gai inh value, high to low:
Molecule	GIV-Gai inh
O=C(CSc1ccc(Cl)cc1)N1CCN(c2ncccc2C(F)(F)F)CC1	105
Cc1ccc(Cn2c(/N=C/c3ccc(Br)cc3)nc3ccccc32)cc1	101
O=C1C(Oc2ccc(Cl)cc2)C(c2ccc3c(c2)OCO3)N1CC1CCCO1 (stereo unspecified)	99
CCCc1ccc(NC(=S)OCC)cc1	98
